Yeast UUG start: yeast start codon fidelity modulation; AID 602363; 350,000 compounds, 0.13% hits; S. cerevisiae UUG-firefly luciferase reporter, luminescence/redox ratio; activity score, % at 18.7 µM;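 active means replicate mean at a twofold rise or more, about +100% in these data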;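 further: firefly luciferase made from a UUG start codon reports start codon fidelity; reporter light over untreated wells divided by growth signal over untreated wells; some hits fall short of that in this replicate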
eIF4H FP inh: inhibitors of RNA binding by human eIF4H; eIF4H fluorescence polarization binding assay; inhibition, % at 35 µM; 290,000 compounds, 0.94% hits;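 active means 50% or more with normal probe brightness, or confirmed in later tests; about a fifth of its hits are not listed in these tables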;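 further: calls also rest on retests at 20 µM and on dose response follow-up; 0% = protein and probe with vehicle and 100% = probe without protein; strong numbers were not always called active; many hits fall short of the cut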
HIV Env fusion: blocks HIV Env-driven cell-cell fusion; 360,000 compounds, 1.1% hits; inhibition, % at 12.3 µM; HeLa-JRFL Env/CEM21 cell fusion, luciferase;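 active means mean replicate inhibition score of at least 50 and every replicate individually at or above 50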;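 further: 0% = plate neutral controls and 100% = maraviroc near 300 nM; one replicate is shown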
Rce1 inh: yeast Ras-converting enzyme inhibition | AID 2563 | calls only | Q03530 | yeast membranes, quenched prenylated peptide cleavage fluorescence | 290,000 compounds, 0.27% hits;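 active means fall in fluorescence gain of 50% or more versus controls, with final raw signal at or below 3038400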;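 further: plate controls were neutral control wells for no effect and wells lacking membranes for full effect; tested at 10 µM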
PABP polyA inh: PABP-poly(A) binding inhibition; P11940; 290,000 compounds, 1% hits; PABP-poly(A) RNA binding, fluorescence polarization; AID 2014; inhibition, % at 35 µM;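 active means 50% or more with normal probe brightness, or confirmed in later tests; about a fifth of its hits are not listed in these tables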;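 further: calls also rest on retests at 20 µM and on dose response follow-up; controls were probe without protein and protein plus probe with vehicle; some compounds called inactive have numbers as strong as hits; many hits fall short of the cut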
Target sequence (P11940 whole entry, looked up): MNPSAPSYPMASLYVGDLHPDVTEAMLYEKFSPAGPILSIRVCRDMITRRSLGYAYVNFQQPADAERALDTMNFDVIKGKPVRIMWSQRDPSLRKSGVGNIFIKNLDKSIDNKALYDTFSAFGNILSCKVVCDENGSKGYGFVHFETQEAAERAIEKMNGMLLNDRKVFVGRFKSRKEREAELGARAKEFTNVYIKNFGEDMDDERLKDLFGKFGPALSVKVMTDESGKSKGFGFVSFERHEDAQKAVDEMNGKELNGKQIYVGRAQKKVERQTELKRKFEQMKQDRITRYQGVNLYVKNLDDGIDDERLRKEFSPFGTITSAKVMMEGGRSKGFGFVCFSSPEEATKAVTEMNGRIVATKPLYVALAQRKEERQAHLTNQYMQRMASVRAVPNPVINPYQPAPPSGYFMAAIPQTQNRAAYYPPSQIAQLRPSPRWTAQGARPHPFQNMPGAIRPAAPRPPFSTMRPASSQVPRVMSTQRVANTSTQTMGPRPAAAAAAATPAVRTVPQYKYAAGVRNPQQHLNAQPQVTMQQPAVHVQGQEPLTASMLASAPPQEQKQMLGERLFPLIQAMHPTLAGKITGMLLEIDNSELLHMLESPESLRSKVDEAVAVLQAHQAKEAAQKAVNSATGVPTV
CSC inhib: blocks cancer stem cells. cancer stem cell-like cells viability, luminescence. inhibition, % at 7.5 µM. 300,000 compounds, 1.1% hits. AID 2717;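 active means mean at 75% or more and at least half the replicates too; tested in HMLE shEcad cells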;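 further: 0% = median of negative and 100% = median of positive control wells; the first replicate is given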
MT1-MMP act inh: MT1-MMP (human) activation inhibition | HT1080 RFP-PRO-GFP cells, GFP/RFP ratio fluorescence, overnight; percent of plate control window, DMSO zero | GFP/RFP ratio change, % at 20 µM | P50281 | 360,000 compounds, 0.061% hits;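 active means GFP/RFP ratio change of at least 30% with cell ATP level not reduced by more than half and red fluorescence within 50% of control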; further: strong numbers were not always called active
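Assay system: RFP-PRO-GFP reporter HT1080 cells; read-out basis: GFP/RFP fluorescence ratio; benchmarks: DMSO wells and RFP-L50D-GFP cells; doses: 20 µM single dose, 1% DMSO; schedule: overnight cell settling, then overnight compound exposure, 37 °C, 5% CO2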
eIF4H FP inh retest: also measured in eIF4H FP inh; calls as there; inhibition, %; compound at 20 µM; confirmation average;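 mean of two retest wells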
PABP polyA inh retest: second read-out of PABP polyA inh, no call of its own (marks repeat the call); inhibition, %; compound at 20 µM; confirmation repeats;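 mean of two retest wells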
MT1-MMP act inh RFP: also measured in MT1-MMP act inh; calls as there; RFP signal change, %; measured here: RFP expression control read;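 0 = vehicle wells; hits needed this value within 50% of zero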
* hit, by the source's call; i = inactive; . = no result given. Random draw from the library. Share with any hit: about 3%.

SMILES	Yeast UUG start	eIF4H FP inh	HIV Env fusion	Rce1 inh	PABP polyA inh	CSC inhib	MT1-MMP act inh	MT1-MMP act inh RFP	others
O=C1CC(c2ccccc2)CC(=O)N1c1ccc(C(F)(F)F)cc1	-23	.	-51	.	.	-3	0	2
CCN(CC(=O)Nc1ccccc1OC)C(=O)CSCC(=O)Nc1ccc(OC)cc1	.	.	-5	i	.	-13	1	-1
CN(C)CCN(Cc1ccco1)C(=O)c1oc2ccccc2c1NC(=O)COc1ccccc1	5	-21	32	i	-5	17	0	2
CSC1=NCCN1C(=O)c1ccc(S(=O)(=O)N2CCOCC2)cc1	-16	-5	-13	i	-16	-10	6	7
O=C(CN1C(=O)NC2(CCCC2)C1=O)N1CCN(S(=O)(=O)c2cc(Cl)ccc2Cl)CC1	-5	.	.	.	.	-13	1	-1
COc1ccc(OC)c(S(=O)(=O)NC(N)=NCCc2ccccc2OC)c1	.	9	.	i	1	.	.	.
CNC(=O)CSc1nc2cc(S(=O)(=O)Nc3ccc(OC)cc3)ccc2o1	13	0	-16	i	2	-2	0	-1
Clc1ccccc1Cn1nnc(-c2cccs2)n1	11	-5	.	i	-4	-4	11	-2
O=C(N/N=C/c1cccc(O)c1)c1cc(-c2ccccc2)nc2ccccc12	10	4	-2	i	-4	-1	9	5
Fc1ccc(/C=N/n2cnn(Cc3ccccc3Cl)c2=S)cc1	.	1	-14	i	17	3	2	0
Cc1ccc(Oc2ccc3c(c2)C(=O)N(c2cccc4cccnc24)C3=O)cc1	-17	-3	-10	i	-1	1	2	4
CCc1nnc(NC(=O)CSc2nnc(C)n2Cc2ccccc2)s1	-24	-4	.	i	2	-4	8	2
CCOc1ccc(NS(=O)(=O)c2ccc(NS(=O)(=O)c3cccs3)cc2)cc1	-35	6	4	i	4	-4	-4	-2
COc1cc(C(=O)O)cc(NC(=O)c2cccs2)c1OC	0	24	1	i	-6	12	6	3
CN=c1sc2ccccc2n1CC(O)c1ccccc1 (centres undefined)	.	4	11	i	2	.	2	-1
COC(=O)c1ccc2c(=O)n(Cc3ccc(C(=O)NCCCN4CCOCC4)cc3)c(=S)[nH]c2c1	-10	-4	-6	i	-10	-10	1	5
CCc1cc2cc(C)cc(C)c2nc1SCC(=O)N1CCCC1	-19	-3	.	.	2	-3	-10	-9
CC1(C(=O)NS(=O)(=O)C2CC2)CCCN(C(=O)Cc2ccc3ccccc3c2)C1 (centres undefined)	-34	.	-10	.	.	.	-2	4
COc1ccc(S(=O)(=O)N2CCOCC2)c(C)c1C	-21	7	.	i	1	3	3	1
CC(C)OCC(O)CCc1n[nH]c(=S)n1-c1ccccc1 (centres undefined)	.	2	.	i	10	.	-1	2
COc1cc([N+](=O)[O-])cc2sc(NC(=O)c3c(F)cccc3F)nc12	.	-14	10	i	-8	19	2	-1
COC(=O)CC1SC(=O)NC1=O (centres undefined)	-13	-3	.	.	1	.	4	10
CCOc1ccc(-n2c(C)c3c(C)nnc(C)c3c2C)cc1	-24	.	18	.	.	.	-7	-15
Cc1cc(C)cc(CC(=O)N2CCC2(C)C(=O)NS(=O)(=O)Cc2ccccc2)c1 (centres undefined)	2	.	3	.	.	.	-2	3
CN(Cc1ccccc1)C(=O)COC(=O)C1CCN(S(=O)(=O)c2ccc(Cl)c(C(F)(F)F)c2)CC1	2	.	.	i	.	-14	0	1
CSc1ccc(C(=O)C2CCCN(C(=O)CCc3cnn(C)c3)C2)cc1 (centres undefined)	-16	-3	-2	i	-5	31	-4	-3
CC(=O)N1N=C(c2ccc3ccccc3c2)OC1(C)C	-4	-3	-89	i	-5	-3	-5	-10
CCC(CC)c1nnc(NC(=O)Cc2cccs2)s1	.	9	-19	i	4	.	-1	5
C=C(C)CSc1nnc(-c2ccc(OC)c(OC)c2)n1N	14	4	-98	i	-1	6	1	1
O=C(O)CNC(=O)c1ccccc1F	-11	4	.	i	1	-7	-2	4
CCOC(=O)C1(Cc2ccccc2C(F)(F)F)CCN(C(=O)c2cc(C(C)=O)n[nH]2)CC1	.	-1	3	i	3	0	-8	1
CCC(C)C(=O)Nc1nc2ccc(S(C)(=O)=O)cc2s1 (centres undefined)	.	0	19	i	-3	-7	-10	-4
CCOC1=C2CN(S(=O)(=O)c3ccc(C)cc3)[C@H](c3ccccc3)C[C@@H]2N(S(=O)(=O)c2ccccc2C)[C@H](c2ccccc2)C1	1	.	36	.	.	.	-1	-6
COCCOC(=O)c1c(C)oc2ccc(OCC=C(C)C)cc12	-18	-4	17	i	-9	5	1	1
O=C(Cn1nc2n(c1=O)-c1ccccc1SC2)N/N=C/c1cccs1	-10	-17	17	i	-5	-7	-2	1
Cc1[nH]nc2c1C(c1ccc(F)cc1)C(C#N)=C(N)O2 (centres undefined)	-12	2	.	.	-6	-4	2	7
CS(=O)(=O)NCCNc1ncc(C(F)(F)F)cc1Cl	.	1	-30	i	-16	5	3	4
CCC(C)NC(=O)c1ccc(CSCc2ccccc2Cl)o1 (centres undefined)	-19	-2	20	i	1	-6	1	-7
CCOC(=O)c1c(NC(=O)CN2C(=O)NC3(CCC(C)CC3)C2=O)sc(C)c1CC (centres undefined)	-11	.	-32	i	.	-14	4	3
COc1ccc(S(=O)(=O)N(C)c2ccc(C(=O)NCC3CCCO3)cc2)cc1 (centres undefined)	0	-2	.	i	3	9	2	0

In the list so far, 2 have a COOH group:
SMILES	Yeast UUG start	eIF4H FP inh	HIV Env fusion	Rce1 inh	PABP polyA inh	CSC inhib	MT1-MMP act inh	MT1-MMP act inh RFP	others
COc1cc(C(=O)O)cc(NC(=O)c2cccs2)c1OC	0	24	1	i	-6	12	6	3
O=C(O)CNC(=O)c1ccccc1F	-11	4	.	i	1	-7	-2	4

Next part.
SMILES	Yeast UUG start	eIF4H FP inh	HIV Env fusion	Rce1 inh	PABP polyA inh	CSC inhib	MT1-MMP act inh	MT1-MMP act inh RFP	others
COc1ccc(N2C(=NC(=O)C3CCCO3)SC3CS(=O)(=O)CC32)cc1 (centres undefined)	-2	.	-3	i	.	-5	0	5
CCn1c(=NC(=O)c2ccco2)sc2cccc(F)c21	-14	-11	-60	i	0	-18	-6	2
Cc1ccc(C(=O)Cn2c3[n+](c4ccccc42)CC(O)CS3)cc1 (centres undefined)	-9	-7	2	i	-7	.	1	-6
COc1ccccc1CNC(=O)c1cc(-c2ccccc2)nn1CC1CC(c2cccc([N+](=O)[O-])c2)=NO1 (centres undefined)	-9	.	1	i	.	3	1	2
COc1ccc2c(c1)OC[C@H]1[C@H]2N2C(=O)CN(CCc3c[nH]c4ccccc34)C(=O)[C@@]2(C)[C@H]1c1ccccc1	-4	.	4	.	.	-1	-10	-5
CNC1(c2nnnn2-c2ccccc2C)CCOC(C)(C)C1 (centres undefined)	-10	2	13	i	4	-4	4	5
Nc1c(C(O)(C(F)(F)F)C(F)(F)F)ccc2ccccc12	-4	-3	25	i	7	.	2	-4
CC(C)CCNC(=O)NC(=O)CSc1ccc(S(=O)(=O)N2CCOCC2)cn1	4	.	4	.	.	5	0	-3
Cc1ccccc1C(=O)NC1CCN(CC(=O)Nc2c(C)cccc2C)CC1	-2	2	-20	i	-1	.	0	-2
CCN(C(=O)CSC1=Nc2ccccc2C2CC=NN12)C1CCS(=O)(=O)C1 (centres undefined)	.	4	2	i	11	-3	-3	0
O=C(Nc1ccc2c(c1)OCO2)Nc1cnccn1	.	3	.	i	0	-6	2	-1
COc1ccccc1N1CCN(c2ccc([N+](=O)[O-])cc2Cl)CC1	.	2	13	i	-4	56	-7	-11
O=C(CCc1nc2ccccc2n1-c1ccccc1)NCCO	-15	4	1	i	1	-9	2	-2
Cc1ccc(S(=O)(=O)Nc2ncnc3sccc23)cc1C	-4	.	13	.	.	.	1	3
CCC(CC)C(=O)Nc1ccc(-c2cn3cccnc3n2)cc1	-15	1	-23	i	5	-10	1	1
CCCCC(=O)Nc1ncc(Br)s1	.	10	.	i	6	.	-10	-1
CCOc1ccc(C(=O)CCC(=O)NC(CC(C)C)C(=O)OC)cc1 (centres undefined)	12	2	2	i	-1	-12	-4	1
CCOC(=O)C1CCCN(C(=O)CN2C(=O)/C(=C/c3ccc(OC)cc3)Oc3ccccc32)C1 (centres undefined)	.	6	3	i	7	17	-5	-12
Cc1nnc(NC(=O)CSC2=NN3CCCC(=O)N=C3S2)s1	.	9	17	i	-5	-9	3	0
Brc1ccc2c(c1)[C@H]1OCC[C@H]1[C@@H](c1cccs1)N2	.	4	-11	i	6	-3	-8	-17

Arranged by length of the SMILES (largest number first): part of the list above.
SMILES	Yeast UUG start	eIF4H FP inh	HIV Env fusion	Rce1 inh	PABP polyA inh	CSC inhib	MT1-MMP act inh	MT1-MMP act inh RFP	others
CC(C)CCNC(=O)NC(=O)CSc1ccc(S(=O)(=O)N2CCOCC2)cn1	4	.	4	.	.	5	0	-3
Cc1ccccc1C(=O)NC1CCN(CC(=O)Nc2c(C)cccc2C)CC1	-2	2	-20	i	-1	.	0	-2
Cc1nnc(NC(=O)CSC2=NN3CCCC(=O)N=C3S2)s1	.	9	17	i	-5	-9	3	0
CCC(CC)C(=O)Nc1ccc(-c2cn3cccnc3n2)cc1	-15	1	-23	i	5	-10	1	1
CCn1c(=NC(=O)c2ccco2)sc2cccc(F)c21	-14	-11	-60	i	0	-18	-6	2
O=C(CCc1nc2ccccc2n1-c1ccccc1)NCCO	-15	4	1	i	1	-9	2	-2

Going on with the list:
SMILES	Yeast UUG start	eIF4H FP inh	HIV Env fusion	Rce1 inh	PABP polyA inh	CSC inhib	MT1-MMP act inh	MT1-MMP act inh RFP	others
COCC(=O)N1CCC(Oc2ccc(C(=O)NC3Cc4ccccc4C3)cc2)CC1	0	1	1	i	-10	2	5	-8
CCOC(=O)C1CCN(c2ncnc3nc[nH]c23)CC1	-23	0	-3	i	-3	-9	2	0
[O-]/[N+](=C/c1ccc(F)cc1)c1ccccc1	-8	-1	-75	.	-2	-3	5	9
NC(Cc1ccc(O)cc1)c1cn([C@@H](CCC(=O)O)C(=O)N2CCNCC2)nn1 (some centres undefined)	-9	-5	2	i	-1	-13	0	-1
CCOc1ccc(NS(=O)(=O)c2ccc(C)c(C(N)=O)c2)cc1	4	3	18	i	2	-11	1	-6
Cc1ccc(OCc2n[nH]c(=S)n2C2CCCCC2)cc1	-21	-9	.	i	-12	7	-5	-2
c1ccc(-c2noc(CN3CCOCC3)n2)cc1	-7	3	-13	i	1	-23	3	6
CCOC(=O)Cc1cnc(NC(=O)CSc2nc(N)cc(N)n2)s1	.	1	-2	i	-1	-10	1	-8
O=C(O)c1ccc(NCc2cccs2)cc1	-17	1	-1	i	-3	-12	-5	2
CCc1ncc(C(O)c2cccc3ccccc23)n1C (centres undefined)	-16	4	-17	i	-3	-1	-6	1
CC(C)(C)c1cc(CN2CCC(O)CC2)cc(C(C)(C)C)c1O	-10	13	-59	i	9	-13	-2	2
OC1CCN(c2ncnc3nc[nH]c23)CC1	-3	-12	36	i	-15	-2	-2	6
O=C(Cn1c(-c2cncs2)nc2ccccc21)NCCc1ccccc1	-24	2	-10	i	-2	-8	2	2
S=C(NCCc1ccccc1)N/N=C/c1ccc(Cl)cc1	.	2	18	i	15	22	2	5
O=C(O)c1cc(S(=O)(=O)N2CCN(C(c3ccccc3)c3ccccc3)CC2)ccc1Cl	-4	-6	18	i	1	-1	-7	-4
COc1ccccc1/C=C/c1ccc2cccc(O)c2n1	-22	59	-85	i	12	29	10	7	eIF4H FP inh retest=45;PABP polyA inh retest=13
C/C(=N\n1c(C)nc2ccccc2c1=O)c1ccc(C)o1	.	-7	14	i	-5	-12	-2	3
CCN(CC(=O)NC1CCS(=O)(=O)C1)c1nc(-c2ccccc2)nc2ccccc12 (centres undefined)	-17	-7	-50	i	0	-13	4	6
CCCC12CN3CCN(CC(C3)/C1=N\NC(=O)c1ccc(F)cc1)C2	.	-9	-11	i	-7	-11	1	5

Screening data (PubChem BioAssay)
